RecA splice inh: inhibitors of M. tuberculosis RecA intein splicing | inhibition, %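 (about 9 µM by stock and volumes)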 | AID 2221 | 290,000 tested, 0.75% active | cell-free RecA intein splicing, fluorescence; in the data active = inhibition above about 30%;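 also: 0% = vehicle wells and 100% = reference inhibitor control wells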
Target sequence (P9WHJ3 whole entry, looked up, canonical isoform): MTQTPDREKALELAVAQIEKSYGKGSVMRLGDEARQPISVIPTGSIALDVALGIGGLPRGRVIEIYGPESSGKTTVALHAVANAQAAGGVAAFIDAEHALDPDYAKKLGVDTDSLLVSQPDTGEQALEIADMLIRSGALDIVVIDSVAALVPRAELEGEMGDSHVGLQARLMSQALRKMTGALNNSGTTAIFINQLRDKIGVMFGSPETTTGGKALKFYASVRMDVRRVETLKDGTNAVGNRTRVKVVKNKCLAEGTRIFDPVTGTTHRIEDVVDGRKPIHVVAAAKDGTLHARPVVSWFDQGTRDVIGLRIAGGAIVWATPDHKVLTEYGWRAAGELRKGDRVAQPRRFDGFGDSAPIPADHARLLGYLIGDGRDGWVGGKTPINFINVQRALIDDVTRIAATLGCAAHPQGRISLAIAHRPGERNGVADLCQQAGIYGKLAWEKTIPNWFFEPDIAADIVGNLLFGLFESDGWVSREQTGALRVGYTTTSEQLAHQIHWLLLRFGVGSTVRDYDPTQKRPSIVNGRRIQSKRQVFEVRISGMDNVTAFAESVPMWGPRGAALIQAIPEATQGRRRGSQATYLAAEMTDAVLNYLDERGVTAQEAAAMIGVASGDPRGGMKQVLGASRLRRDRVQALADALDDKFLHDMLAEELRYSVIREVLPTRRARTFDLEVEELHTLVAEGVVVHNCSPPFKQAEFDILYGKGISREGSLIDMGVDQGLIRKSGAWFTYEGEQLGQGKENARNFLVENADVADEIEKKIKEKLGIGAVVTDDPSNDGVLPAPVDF
Arbovirus inh: antivirals against arbovirus infection | arbovirus infection cell-based antiviral screen | inhibition, % at 10 µM | 200,000 tested, 0.37% active | AID 1251;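 active = inhibition from about 30%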;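 also: bluetongue infection of BSR cells; cell survival read as ATP light after 72 h; 0% = infected wells without compound and 100% = uninfected wells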
YopH inh: inhibitors of Yersinia enterocolitica YopH tyrosine phosphatase; fluorescence Ex485/Em525; inhibition, %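 (about 10 µM by stock and volumes)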; 140,000 tested, 0.16% active;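 active = inhibition of 50% or more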;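 also: controls were vehicle for no effect and minimum signal wells for full effect; inactives centre near -20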
Mtb betalactam: beta-lactam sensitization of Mtb H37Rv | inhibition, % at 25 µM | AID 434955 | 330,000 tested, 0.27% active | M. tuberculosis H37Rv growth with meropenem, percent inhibition; hits of this screen are not shown here;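 active = about 74% or more and at least 40 points above the plate without the antibiotic, then above 30% in a dose series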;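 also: growth measured after seven days incubation then overnight dye step; 0% = bacteria only wells and 100% = bacteria with antibiotic; twin plates without the antibiotic show which effects depend on it; some results filed as inactive read as strong as hits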
Mtb growth: M. tuberculosis H37Rv growth inhibitors, H37Rv strain (AID 1626). M. tuberculosis H37Rv growth inhibition; higher % means a stronger effect. inhibition, % at 10 µM; hits with a dose series show IC50 in µM. 220,000 tested, 0.95% active;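 active = confirmed in a dose series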;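 also: bacteria incubated seven days before Alamar blue readout; 0% = bacteria only wells and 100% = bacteria with antibiotic wells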
Arbovirus inh repeat: recorded beside Arbovirus inh, whose call it bears; inhibition, %; measured here: 10K subset replicate screen; many hits read low in the repeat;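 first of two repeat runs on a subset; 0% = infected and 100% = uninfected wells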
* hit, by the source's call; x = no result given. These rows are one share of the data. The share of hits here may be higher or lower than overall.

Start of the data: the first 6 compounds, to show the layout:
SMILES | RecA splice inh | Arbovirus inh | YopH inh | Mtb betalactam | Mtb growth | others
O=c1[nH]cnc2sc3c(c12)CCCC3 | 1.2 | 18 | 25 | -21 | -2%
Cc1cc(NC(=O)CSc2nnc(-c3ccccc3)c(-c3ccccc3)n2)no1 | 3.9 | -20 | x | 8 | -2%
Cn1c(SCC(=O)N2CCCCCC2)nc2c(c1=O)SCC2 | -0.1 | x | x | -6 | x
COc1ccc(NC(=O)Nc2ccc(OCc3ccccc3)cc2)cn1 | 2.0 | x | x | 64 | x
O=C(C1=C(O)C(=O)N(Cc2ccco2)C1c1cccnc1)c1cc2ccccc2o1 (stereo not drawn) | 4.4 | -1 | -52 | -4 | -8%
COc1ccc(CC(O)CC2c3c(cc4c(c3OC)OCO4)CCN2C)cc1 (stereo not drawn) | -2.1 | x | x | -1 | x

The list itself, previewed entries included:
SMILES | RecA splice inh | Arbovirus inh | YopH inh | Mtb betalactam | Mtb growth | others
O=c1[nH]cnc2sc3c(c12)CCCC3 | 1.2 | 18 | 25 | -21 | -2%
Cc1cc(NC(=O)CSc2nnc(-c3ccccc3)c(-c3ccccc3)n2)no1 | 3.9 | -20 | x | 8 | -2%
Cn1c(SCC(=O)N2CCCCCC2)nc2c(c1=O)SCC2 | -0.1 | x | x | -6 | x
COc1ccc(NC(=O)Nc2ccc(OCc3ccccc3)cc2)cn1 | 2.0 | x | x | 64 | x
O=C(C1=C(O)C(=O)N(Cc2ccco2)C1c1cccnc1)c1cc2ccccc2o1 (stereo not drawn) | 4.4 | -1 | -52 | -4 | -8%
COc1ccc(CC(O)CC2c3c(cc4c(c3OC)OCO4)CCN2C)cc1 (stereo not drawn) | -2.1 | x | x | -1 | x
COc1ccc(N(Cc2ccccc2)N=O)cc1 | 2.6 | x | x | 4 | x
O=C(O)c1ccc2oc(=O)c(S(=O)(=O)c3ccccc3)cc2c1 | -1.5 | x | x | -3 | x
CC#CCCC(=O)N1C=Cc2ccccc2C1C#N (stereo not drawn) | 2.4 | -3 | -19 | 1 | -1%
CN(NC1OC(=O)c2ccccc21)c1ncc(Cl)cc1C(F)(F)F (stereo not drawn) | -1.4 | x | x | -6 | -3%
COc1ccc(C(=O)C2CCN(C(=O)Nc3ccc(C)cc3)CC2)cc1 | 0.9 | x | x | 3 | x
O=C(c1ccccc1)c1ccc2nc(-c3ccco3)c(-c3ccco3)nc2c1 | -29 | -14 | x | 6 | -5%
Cc1nn(S(=O)(=O)N2CCCCC2)c(C)c1Br | -1.0 | -9 | -22 | 4 | -7%
C/C=C\C=C\C(=O)N1CC2(CC(c3cccc(NC(=O)CC)c3)=NO2)C[C@H]1C(N)=O (stereo partly drawn) | -1.0 | x | x | -5 | -3%
Cc1cc(=O)n2nc(N3CCC(C(=O)NCc4cccc(Br)c4)CC3)sc2n1 | -7.9 | x | x | 0 | x
N#CC1=C(N)Oc2c(c(=O)oc3ccccc23)C1c1ccncc1 (stereo not drawn) | x | 10 | 0 | 12 | -1%
COc1ccc(/C=N/Nc2nc3ccccc3o2)cc1O | -1.4 | -4 | -16 | -2 | -9%
CCCNC(=O)C1CC2Cn3c(nc4ccccc43)C2N1C (stereo not drawn) | 1.8 | x | x | -7 | x
Cc1c(NC(=O)c2cccs2)cccc1[N+](=O)[O-] | 0.1 | 2 | x | -6 | 5%
COc1ccccc1NC(=O)CN1C(=O)COc2ccc(C)cc21 | -2.5 | x | x | -4 | x
O=C(Nc1cccc(Oc2ccc(C(=O)O)c(C(=O)O)c2)c1)c1ccc(-c2ccccc2)cc1 | 11 | x | x | -4 | -13%
COc1cc(/C=C/CO)cc(OC)c1OC/C=C(\C)CCC=C(C)C | 3.8 | x | x | -3 | 2%
O=C(CN(Cc1ccccc1)C(=O)c1csnn1)NCc1ccccc1 | -3.9 | -2 | x | -1 | 3%
Cc1nnc(SCC(=O)Nc2ccccc2)[nH]c1=O | -0.2 | 3 | -20 | 5 | -4%

The final 3 records of the part before lead into the next.
SMILES | RecA splice inh | Arbovirus inh | YopH inh | Mtb betalactam | Mtb growth | others
COc1cc(/C=C/CO)cc(OC)c1OC/C=C(\C)CCC=C(C)C | 3.8 | x | x | -3 | 2%
O=C(CN(Cc1ccccc1)C(=O)c1csnn1)NCc1ccccc1 | -3.9 | -2 | x | -1 | 3%
Cc1nnc(SCC(=O)Nc2ccccc2)[nH]c1=O | -0.2 | 3 | -20 | 5 | -4%
O=C(Nc1ccc2c(c1)CCC2)Nc1ccc2c(c1)OCO2 | 0.0 | -7 | x | 8 | -13%
Cc1cc(C)c(S(=O)(=O)Nc2ccc(Cl)cn2)c(C)c1 | 2.7 | x | x | -4 | x
O=C(NNC1=NS(=O)(=O)c2ccccc21)c1ccc(Cl)cc1 | -4.7 | -1 | x | 3 | 3%
O=C(Nc1ncc(Cc2cccc(C(F)(F)F)c2)s1)C1CCCO1 (stereo not drawn) | -0.4 | x | x | 21 | x
COc1ccccc1N(Cc1ccccc1)S(=O)(=O)c1cccc(C(=O)NC2CC(C)(C)NC(C)(C)C2)c1 | 1.1 | x | x | -6 | x
O=C(N(c1ccccc1)c1ccccc1)N(c1ccccc1)c1ccccc1 | -0.3 | x | x | -6 | -4%
CC(C)(C)OC(=O)N1CCCC(C(=O)CC#N)C1 (stereo not drawn) | 1.3 | -7 | -37 | 1 | 1%
Cc1ccc(NC(=O)Nc2ccc(Cl)cc2)c(Br)c1 | 2.3 | -1 | -3 | -2 | 6%
Cc1ccc(CNC(=O)c2cc(-c3ccccc3)nn2CC2CC(c3cccc([N+](=O)[O-])c3)=NO2)cc1 (stereo not drawn) | 2.4 | x | x | -9 | 2%
Cc1ccc(-n2nnnc2CNC(=O)C2CC(=O)N(c3ccc(F)cc3)C2)cc1C (stereo not drawn) | -0.3 | x | x | 3 | x
O=C(Nc1ccc(N2CCOCC2)cc1)c1cccc2c(Br)cccc12 | -2.1 | x | x | -7 | x
Clc1ccc(-c2nn3c(-c4ccccc4)nnc3s2)cc1 | 1.6 | -4 | -42 | 3 | 2%
O=C(O)c1ccc(NC(=O)c2cn(-c3ccccc3)nc2-c2ccc(F)cc2)cc1 | 0.8 | -1 | x | 0 | 1%
CC(=O)Nc1ccc(C(=O)CSc2nnc(Cn3nnc4ccccc43)n2C)cc1 | x | -4 | -47 | 0 | -13%
CN(C)CCN(Cc1ccccc1)S(=O)(=O)c1ccc(-c2ccc(=O)[nH]n2)s1 | -0.3 | x | x | 3 | x
COc1ccc(NC(=O)Cn2nnc(-c3ccccc3NS(=O)(=O)c3ccccc3)n2)cc1 | 6.5 | -16 | -4 | 6 | 3%
COc1ccc2[nH]c(=O)c(CN(CC3CCCO3)S(=O)(=O)c3ccccc3F)cc2c1 (stereo not drawn) | 3.0 | x | x | -1 | x
CC(C)c1ccc(O)c(N)c1 | 0.0 | -1 | -22 | 4 | -5%
OCCNCC12CC3CC(CC(C3)C1)C2 | -3.4 | 4 | x | -10 | -3%
Cc1nn(S(=O)(=O)c2ccc(Br)cc2)c(C)c1S(=O)(=O)N1CCOCC1 | -2.0 | x | x | 2 | x
COc1ccc(C(=O)NC(Oc2ccccc2)C(Cl)(Cl)Cl)cc1 (stereo not drawn) | 0.6 | 11 | -28 | 0 | -16%
CN1CCc2c(sc(NC(=O)Cc3ccc(F)cc3)c2C(N)=O)C1 | -25 | x | x | 6 | x
Cc1ccc(S(=O)(=O)N(CC(=O)N/N=C/c2ccco2)c2cc(Cl)cc(Cl)c2)cc1 | 7.2 | 1 | -11 | -1 | -2%
O=C(CS(=O)c1cccc(C(F)(F)F)c1)Nc1ccc(Cl)cc1Cl (stereo not drawn) | -0.8 | -3 | -27 | 4 | 3%
COc1ccc(CN2C(=O)c3ccccc3C2OC)cc1 (stereo not drawn) | -2.0 | x | x | -3 | x
CC[C@H](C)[C@@H](C(=O)N1CCNCC1)n1cc([C@@H](N)CC(C)C)nn1 | -3.1 | 0 | x | -1 | -10%
Oc1c(Br)cc(Br)cc1CN1CCN(Cc2ccccc2)CC1 | 11 | 7 | -33 | 19 | -1%
Cc1noc(C)c1CCC(=O)N1CCCC(CO)(Cc2ccccc2)C1 (stereo not drawn) | 0.3 | x | x | 2 | x
Cc1ccccc1NC(=S)N(CCN1CCCCCC1)Cc1cccs1 | x | 16 | x | -6 | 3%
O=C1CCCC2=C1C(c1ccccc1)n1c(s/c(=C/c3cccc(F)c3)c1=O)=N2 (stereo not drawn) | -0.6 | 4 | 1 | -3 | x
CCOC(=O)c1sc(NC(=O)CSc2n[nH]c(-c3ccccc3)n2)c(C#N)c1C | 2.7 | -41 | -35 | 81 | x
Cc1ccc(F)c([C@H]2[C@H]3C=CC[C@@H](C)[C@@H]3C(=O)N2Cc2ccccc2)c1 | 27 | x | x | 29 | 11%
Cc1nc2ccccn2c1C(=O)NNS(=O)(=O)c1ccc(C(C)(C)C)cc1 | -3.5 | 7 | -24 | 0 | -2%
CCOC(=O)N1CCN(C(c2ccc(C)cc2)c2sc3nc(C)nn3c2O)CC1 (stereo not drawn) | 1.7 | -2 | x | 7 | -1% | Arbovirus inh repeat=3
O=c1c(Cl)c(N2CCN(c3ccc(F)cc3)CC2)cnn1-c1nc2ccccc2s1 | 1.4 | -6 | -44 | 4 | 1%
Cc1cc2c(=O)n(CC(=O)N3CCN(c4ccc(F)cc4)CC3)cnc2s1 | -1.4 | 4 | -42 | -2 | -12%
COc1ccc(S(=O)(=O)Cc2ccc(C(=O)N3CCN(c4ccccn4)CC3)o2)cc1 | x | -3 | x | 5 | -5%
O=C(N/N=C/c1c(O)n(-c2cccc3ccccc23)c(=O)[nH]c1=O)c1ccncc1 | 4.1 | x | x | 99 | x
Cn1c(C(=O)N2CCCC(C(=O)NCCCSC3CCCCC3)C2)cc2sccc21 (stereo not drawn) | 5.7 | 10 | -16 | 91 | x
CCn1c(NC(=O)c2cccc(Cn3cc(Cl)cn3)c2)nc2ccccc21 | 3.0 | 6 | -4 | 62 | 3.6µM* | Arbovirus inh repeat=-12
Cc1ccccc1OCC(=O)OCC(=O)Nc1cc(S(=O)(=O)N2CCCCC2)ccc1Cl | -1.7 | x | x | 6 | x
CC1=NCCN1S(=O)(=O)c1cc([N+](=O)[O-])ccc1Cl | -0.5 | 3 | x | -3 | -6%
COc1ccc(N=Nc2c(-c3ccc(OC)cc3)[nH]oc2=O)cc1 | 1.9 | x | x | 1 | x
COc1ccc(C(=O)c2ccc(Br)cc2)c2ccccc12 | 1.3 | x | x | -7 | x
O=C(CSc1nccn1Cc1ccccc1)Nc1ccccc1 | 2.7 | x | x | 4 | x
Fc1ccccc1COc1ccc2ccccc2c1CNc1nn[nH]n1 | 1.5 | 31* | x | 16 | 14%
O=C(OCc1csc(-c2ccccc2)n1)c1ccccc1O | 9.0 | 2 | x | -2 | 7%
Cc1cccc(NC(=O)CSc2nc3nc(C)cc(C)c3c(=O)[nH]2)c1 | -1.4 | 1 | -35 | 0 | -18%

Arranged by molar mass (smallest number first): part of the list above
SMILES | RecA splice inh | Arbovirus inh | YopH inh | Mtb betalactam | Mtb growth | others
O=C(OCc1csc(-c2ccccc2)n1)c1ccccc1O | 9.0 | 2 | x | -2 | 7%
O=C(CSc1nccn1Cc1ccccc1)Nc1ccccc1 | 2.7 | x | x | 4 | x
COc1ccc(N=Nc2c(-c3ccc(OC)cc3)[nH]oc2=O)cc1 | 1.9 | x | x | 1 | x
O=C(N/N=C/c1c(O)n(-c2cccc3ccccc23)c(=O)[nH]c1=O)c1ccncc1 | 4.1 | x | x | 99 | x
Cn1c(C(=O)N2CCCC(C(=O)NCCCSC3CCCCC3)C2)cc2sccc21 (stereo not drawn) | 5.7 | 10 | -16 | 91 | x

The list goes on.
SMILES | RecA splice inh | Arbovirus inh | YopH inh | Mtb betalactam | Mtb growth | others
COc1ccc2c(c1)nc(SCC(=O)C(C)(C)C)n2C | -2.4 | -7 | -15 | 4 | 18%
O=C1/C(=C/c2cccc([N+](=O)[O-])c2)CSc2ccc(Cl)cc21 | -0.6 | x | x | 1 | 7%
O=c1c2ccccc2nc(-c2ccccc2)n1-c1ccccn1 | 9.9 | -7 | x | 14 | 1%
COc1ccc(CNC(=O)CSc2cccc3cccnc23)cc1 | 0.2 | x | x | 0 | 8%
COc1ccc(CCN(C)C(=O)c2ccc(S(=O)(=O)Nc3ccccc3C)cc2)cc1OC | -1.5 | x | x | 5 | x
O=C(O)/C(=C\c1ccc(Br)cc1)c1ccc(S(=O)(=O)N2CCCCC2)s1 | 1.3 | 27 | 3 | 4 | 3%
Cc1nn(C)c(C)c1S(=O)(=O)Nc1ccc2c(c1)OCO2 | 11 | -3 | -15 | -3 | 3%
COC(=O)Cc1cc(=O)oc2c(C)c(O)ccc12 | x | 4 | -21 | 14 | -9%
CSc1nc2nc3c(cc2c(=O)n1-c1ccccc1C)CCCC3 | 3.2 | x | x | 0 | 3%

Bioassay records deposited in PubChem BioAssay by several laboratories.
